# Source: PubChem (National Center for Advancing Translational Sciences (NCATS))
# Sfp PPTase inh: blocks B. subtilis Sfp PPTase activity | AID 1490 | Biochemical Sfp PPTase activity, qHTS | actives 3.5% (n = 310,000) | Potency, µM, for inactives: max response, negative = inhibition, hits mostly inhibitors; active = well fitted inhibition curve with a large enough effect; inconclusive = small, poorly fitted or top-dose-only effect, or another doubt; inactive = no such curve, though single readings can be large or run the other way;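 note: the enzyme is Sfp with the accession as filed and its product quenches rhodamine fluorescence; potency is the fitted concentration of half-maximal effect; 0% = enzyme reaction without inhibitor and -100% = no enzyme wells; top concentration of the series not given in the record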
#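 After 15 min at room temperature with compound, 15 nM Sfp received 5 uM rhodamine-CoA plus 12.5 uM BHQ-2-ybbR (50 mM Hepes pH 7.6, 10 mM MgCl2). Rate came from the fluorescence difference over 30 min, ex 525/em 598 nm.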
# Menin MLL FP FL: menin-MLL binding inhibition, fluorescein peptide | 290,000 tested, under 10 active | AID 1766 | Fluorescence polarization, fluorescein-MLL peptide displacement from menin | FP activity change, % at 61.4 µM; inconclusive = falling polarisation curve, or a change in total fluorescence; inactive = total fluorescence flat and polarisation flat or rising; no compound was filed as active; the % refers to the polarisation; negative = inhibition;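 note: % of control where 0% means no effect; inhibitors lower the polarisation; unlabelled MLL peptide was the positive control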
# ClpP mod: qHTS Assay for Activators of ClpP. actives 1.9% (n = 340,000). ATP-dependent Clp protease proteolytic subunit (Bacillus subtilis (strain 168)), P80244. purified B. subtilis ClpP, FRET peptide cleavage, 20 min. Potency, µM (highest dose often 57.5 µM), without a hit: at the top dose activity change, negative = active; active = well fitted falling curve with a large enough effect; inconclusive = small, poorly fitted or top-dose-only effect; inactive = no such curve, though single readings can be large or run the other way; note: potency is the fitted concentration of half-maximal effect; the source files actives as falling curves though it sought activators and does not explain the sign; nearly all actives have a fitted effect of over 65% in size; many hits overshoot -100%
# Target sequence (P80244 whole entry, looked up): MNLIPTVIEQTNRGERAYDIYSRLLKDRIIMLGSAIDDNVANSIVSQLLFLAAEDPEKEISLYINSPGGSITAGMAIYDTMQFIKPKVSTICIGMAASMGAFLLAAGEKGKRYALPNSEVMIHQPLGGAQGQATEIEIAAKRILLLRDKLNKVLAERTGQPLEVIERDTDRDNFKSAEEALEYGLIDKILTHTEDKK
#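 Purified B. subtilis ClpP, 10 microg/mL final in Tris/HCl pH8 with KCl, BSA, glycerol and Tween-20, cleaved an Abz/nitrotyrosine-quenched decapeptide. Fluorescence (ex 320, em 430) was read at 0 and 20 min at room temperature. Delta was normalized to 5.8 microM ADEP and DMSO/no-enzyme controls.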
# gsp ag: agonists of gsp mutant (McCune-Albright syndrome); gsp mutant cells, cAMP HTRF, 30 min; control for the full effect not named in the record; Potency, µM (series often up to 76.9 µM), inactives show at the highest dose activation (cAMP increase), actives largely listed as activators; actives 0.13% (n = 340,000); AID 624287; active = well fitted activation curve with a large enough effect; inconclusive = small, poorly fitted or top-dose-only effect, or another doubt; inactive = no such curve, though single readings can be large or run the other way; cell line not stated here;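 note: phosphodiesterase inhibitor Ro 20-1724 added with compounds to block cAMP breakdown; potency is the fitted concentration of half-maximal effect; nearly all actives have a fitted effect of over 60% in size; about a fifth of the inactives were tested at one dose only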
#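 Cells stably selected in G418 were plated at 2000/well, grown 16-24 hr, then given compounds in DMSO with the PDE inhibitor […] (300 uM solution added) for 30 min at 37C; cAMP was read by HTRF.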
# CtBP-E1A inh: CtBP/E1A binding inhibition; activity change, % (test concentration not listed); AlphaScreen GST-E1A/His-CtBP binding, 1536-well; hits give low values; control for the full effect not named in the record; actives 0.49% (n = 340,000); in the data active means activity change below about -65%; inconclusive means about -30% to -65%; inactive means above about -30%; note: % is set by controls: 0 for no effect and ±100 for the full control effect; compound concentration not given in the record
#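 AlphaScreen with 125 nM GST-E1A and 125 nM His-CtBP (5X stocks) in Tris pH 8.0, 300 mM NaCl, BSA, Tween 20, TCEP. Compounds preincubated 2 h at 37 deg C, then glutathione donor/nickel acceptor beads added for 1 h at 37 deg C in dark.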
# gsp antagonist: antagonizes gsp, the McCune-Albright syndrome mutation; gsp-mutant cells, cAMP HTRF, 30 min; control for the full effect not named in the record; Potency, µM (series often up to 76.9 µM), for the others: at the top dose activity change, negative = inhibition, usual class: inhibitors; actives 0.4% (n = 340,000); AID 624288; active = falling curve of any shape with a large fitted effect; inconclusive = falling curve, mostly with a smaller effect; inactive = flat or rising curve; cell line not stated here;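 note: intracellular cAMP measured with PDE inhibitor Ro 20-1724 present during compound exposure; potency is the fitted concentration of half-maximal effect; % is set by controls: 0 for no effect and ±100 for the full control effect; nearly all actives have a fitted effect of over 65% in size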
#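 HTRF cAMP measurement after 30 min RT detection following 30 min, 37C compound treatment alongside […] (added as 300 uM solution) in G418-selected cells seeded at 2000/well and grown 16–24 h.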
# TRPV1 PAM: enhances activation of the human vanilloid receptor TRPV1. Q8NER1. TRPV1-expressing cells, Fluo-8 calcium influx, capsaicin EC20 potentiation; host cell line not named in the record; control for the full effect not named in the record. potentiation, % at 8.33 µM. actives 0.02% (n = 320,000). AID 540277; active means potentiation above 80%; inconclusive means 30% to 80%; inactive means below 30%; note: 0% is about no effect
# Target sequence (Q8NER1 whole entry, looked up): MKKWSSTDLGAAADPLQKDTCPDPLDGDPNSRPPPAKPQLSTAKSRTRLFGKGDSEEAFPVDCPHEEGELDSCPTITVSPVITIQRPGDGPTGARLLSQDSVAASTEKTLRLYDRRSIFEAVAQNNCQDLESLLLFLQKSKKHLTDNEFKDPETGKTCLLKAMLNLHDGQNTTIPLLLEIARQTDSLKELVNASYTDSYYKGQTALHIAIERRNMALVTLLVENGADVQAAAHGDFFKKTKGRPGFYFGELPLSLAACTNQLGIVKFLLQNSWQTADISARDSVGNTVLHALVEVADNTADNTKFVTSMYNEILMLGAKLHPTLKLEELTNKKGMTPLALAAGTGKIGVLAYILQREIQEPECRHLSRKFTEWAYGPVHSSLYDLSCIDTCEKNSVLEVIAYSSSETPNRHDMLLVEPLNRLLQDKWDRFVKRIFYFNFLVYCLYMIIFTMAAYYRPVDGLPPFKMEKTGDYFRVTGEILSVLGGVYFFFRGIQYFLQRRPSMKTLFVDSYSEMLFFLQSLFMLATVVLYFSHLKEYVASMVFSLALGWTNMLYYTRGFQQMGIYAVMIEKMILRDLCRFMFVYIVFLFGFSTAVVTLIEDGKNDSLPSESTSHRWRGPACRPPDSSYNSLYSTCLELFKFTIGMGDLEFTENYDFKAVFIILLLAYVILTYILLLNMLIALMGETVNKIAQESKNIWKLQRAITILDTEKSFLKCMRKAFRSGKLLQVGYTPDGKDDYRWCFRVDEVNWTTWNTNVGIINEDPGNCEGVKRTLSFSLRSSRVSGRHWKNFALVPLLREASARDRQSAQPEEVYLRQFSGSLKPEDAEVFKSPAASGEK
#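 Cells expressing TRPV1 were dye-loaded with Fluo-8 and read kinetically: 10 s baseline, 3 min after compound (agonist portion), then 2 min after EC20 capsaicin (allosteric enhancer portion). Calcium-bound dye fluorescence at 480/520 nm.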
# Active calls of the source: *; ? = inconclusive; nt = not tested or not shown; & = joins results of further samples; [ ] = another dose, or the depositor's remark.
SMILES,Sfp PPTase inh,Menin MLL FP FL,ClpP mod,gsp ag,CtBP-E1A inh,gsp antagonist,TRPV1 PAM
CCOC(=O)c1ccccc1NC(=O)c1cn(CC)c2nc(C)ccc2c1=O,2.3%,2.7,-1.5%,?,-4.0,-6.3%,5.9
COc1cccc(NC(=O)C(NCCC(C)C)c2ccccc2)c1 (configuration not stated),-0.6%,5.4,-5.3%,-7.7%,9.2,-4.7%,-13.1
COc1cccc(-c2nnc(SCC(=O)Nc3cc(C)ccc3OC)n2N)c1,7.6%,1.8,-0.8%,-35.6%[inhibitor],-2.2,-12.5%,28.1
C#CCN(C[C@H]1[C@H](OC(=O)NC2CCCC2)[C@H](OC(=O)NC2CCCC2)C[C@H]2C(=O)N(c3ccccc3)C(=O)[C@@H]12)S(=O)(=O)c1ccc(C)cc1,nt,nt,-1.8%,-91.8%[inhibitor],1.1,nt,nt
COc1ccc(Nc2nc(N)nc(SCc3nnc(C)s3)n2)cc1,8.5%,1.7,-4.0%,-1.9%,-17.8,12.8%,0.6
Cc1ccccc1NS(=O)(=O)c1ccc(F)cc1,21.5%,5.1,1.0%,6.3%,6.3,2.1%,-7.1
Cc1c(C#N)sc(C(N)=O)c1C,10.9%,3.1,nt,3.6%,0.0,5.9%,3.4
CCOc1ccccc1C(=O)N[C@H](C(=O)OCC(=O)Nc1nnc(-c2ccccc2)o1)C(C)C,nt,nt,nt,1.0%,?,-29.9%,nt
COc1cc(-c2nn3c(Cc4ccccc4)nnc3s2)cc(OC)c1OC,?,1.4,?,2.9%,4.0,10.0%,4.3
COc1ccc(-c2nnc(SCC(=O)/C(C#N)=C(\C)N)o2)cc1,1.5%,?,-0.8%,-7.0%,1.8,2.6%,-10.3
C=CC[C@H](CC(=O)N(CCO)Cc1ccccc1)C(=O)N[C@H](COC(=O)[C@H](CC=C)CC(=O)OC(C)(C)C)Cc1ccccc1,nt,nt,-0.9%,-16.3%,-8.6,?,nt
COC1=CC(=O)C(C2CC(=O)c3c(O)cc(O)cc3O2)=CC1=O (configuration not stated),nt,nt,-0.8%,?,-7.4,-1.2%,nt
CCCNC(=O)N(C)C[C@@H]1Oc2cc(C#CC(C)(C)O)ccc2S(=O)(=O)N([C@H](C)CO)C[C@H]1C,nt,nt,-0.1%,-10.2%,4.9,nt,nt
COc1ccc(-c2cc(C(=O)N(C)CC(=O)Nc3ccccc3Br)c3ccccc3n2)cc1OC,nt,nt,nt,-16.4%[15.4 µM],3.1,-15.5%,-2.1
COC(=O)c1ccc(C(=O)OC)c(NC(=O)CSCc2ccc(Cl)cc2)c1,3.2%,0.4,-27.8%,?,2.9,-9.0%,-9.6
COc1cc(OC)c(OC)cc1/C=C/C(=O)OCC(=O)Nc1c(C)n(C)n(-c2ccccc2)c1=O,nt,nt,-14.1%,?,nt,-13.0%,nt
COc1cc(NC(=O)SC2=NCCS2)cc(OC)c1,2.1%,2.9,-1.0%,-5.2%,nt,-10.7%,-4.3
CC1CN(S(=O)(=O)c2cccc(C(F)(F)F)c2)CC(C)O1 (configuration not stated),17.4%,2.6,1.0%,-2.7%[15.4 µM],13.9,8.5%,11.0
Cc1ccc(S(N)(=O)=O)cc1NC(=O)c1ccc2c3c(cccc13)CC2,9.8%,3.3,-8.9%,-1.1%,nt,1.7%,-15.9
Cc1ccc(C(=O)NCC2CCCO2)cc1[N+](=O)[O-] (configuration not stated),15.3%,1.3,-2.0%,-15.3%,-2.7,15.0%,2.6
COc1ccc(C(C)=O)cc1CSc1nncn1C,18.6%,-1.4,-1.6%,13.3%,6.0,4.1%,-3.9
CC(=O)Nc1ccc(S(=O)(=O)NC2CCSc3ccccc32)cc1 (configuration not stated),4.4%,2.4,nt,?,-7.7,4.4%,-7.2
O=C(Nc1nnc(S(=O)(=O)Nc2ccccc2)s1)c1ccccc1Cl,29.9%,5.5,1.5%&1.2%,?,2.0,-7.3%,-3.5
COc1cccc(-n2nnnc2SCC(=O)c2cc(OC)ccc2OC)c1,3.6%,-3.0,nt,nt,nt,nt,4.6
CC1(C(=O)NNC(=O)c2ccc([N+](=O)[O-])cc2)CC1(Br)Br (configuration not stated),-27.2%,nt,-0.8%,?,-7.6,7.9%,8.3
O=C(NCc1cccnc1)c1cc(-c2ccccc2)on1,1.2%,-0.2,0.0%,-50.9%[inhibitor],-1.1,-4.9%,-6.3
NC(=O)C1CCN(C(=O)CSc2nc3ccccc3s2)CC1,12.3%,3.8,-0.8%,0.4%,-2.3,1.9%,-10.0
O=S(=O)(NC1CC2CCC1C2)c1ccc(Cl)cc1 (configuration not stated),6.1%,-0.2,-0.8%,-12.1%,-3.9,3.2%,1.4
CC(C)CC(=O)Nc1ccc2c(c1)nc(CCN1CCCCC1)n2C,-0.6%,-4.1,-9.2%,-97.7%[inhibitor],nt,1.0%,-1.1
Clc1ccccc1CN1CCC(Cc2ccccc2)CC1,-22.6%,1.5,1.8%,0.9%,-4.1,5.6%,0.8
O=C(NCCC1CCCCN1S(=O)(=O)c1ccccc1)C(=O)NC1CCCC1 (configuration not stated),nt,nt,-5.0%,-2.6%,-2.8,9.3%,-4.0
Cc1ccc(C(=O)NNC(=O)CSc2nnc(-c3ccccc3)n2Cc2ccccc2)cc1,15.5%,2.3,-0.5%,-14.5%,0.5,-20.8%,5.2
COc1ccc(Cl)cc1NC(=O)C1CCN(C(=O)Nc2ccccc2)CC1,nt,nt,2.4%,-113.6%[inhibitor],0.8,-15.7%,-10.6
CC(C)n1nccc1N(Cc1ccc(Cl)cc1)S(=O)(=O)c1ccccc1,2.6%,-5.7,0.7%,-4.5%[15.4 µM],-18.6,-2.0%,-11.9
O=C(CCc1nnc2ccc(NCc3ccc(F)cc3)nn12)NC1CCCC1,0.9%,6.2,nt,13.8%,4.9,8.8%,3.1
CC(=O)C1=C(O)CC(c2ccccc2)CC1=NCCc1c(C)[nH]c2ccccc12 (configuration not stated),-12.6%,6.6,2.1%,-92.9%,0.2,-26.7%,1.2
N#C/C(=N/Nc1ccc([N+](=O)[O-])cc1)C(=N)N1CCCCC1,-14.8%,23.2,-1.2%,-61.2%[inhibitor],?,?,-19.3
O=C(CSc1n[nH]c(Cc2ccccc2)n1)Nc1ccccc1Br,-18.2%,-1.2,nt,2.6%[15.4 µM],18.2,-17.2%,12.2
CCN(CC)C(=O)c1cc(Cl)ccc1NC(=O)c1ccco1,11.3%,3.1,0.3%,2.4%,5.3,2.4%,4.1
CCOc1cccc(-c2c(C(=O)N/N=C/c3ccc(Br)cc3)nnn2-c2nonc2N)c1,15.8%,nt,-5.6%,-6.0%,nt,?,-11.5
COc1cccc(/C=N/NC(=S)NCc2ccco2)c1OC,3.1%,0.8,nt,5.0%[15.4 µM],-0.1,-8.6%,13.3
N#Cc1nc(COc2ccc(Cl)cc2Cl)oc1N1CCOCC1,-16.7%,0.8,1.0%,14.1%,-29.2,1.6%,-7.1
COCCN1C(=O)c2oc3ccccc3c(=O)c2C1c1ccc(O)c(OC)c1 (configuration not stated),-8.8%,4.3,0.6%,-20.7%,1.3,8.1%,-5.2
CCOc1ccc(N2C(=O)c3ccccc3NC2(C)CC)cc1 (configuration not stated),nt,nt,-4.3%,-18.1%,nt,2.4%,-28.2
N#Cc1ccc(OCC(=O)Nc2nc(-c3cccnc3)cs2)cc1,nt,nt,-0.9%,1.8%,-2.8,2.6%,17.2
O=C(Nc1ccc2c(c1)OCO2)N1CCN(S(=O)(=O)c2ccc(Cl)cc2)CC1,-12.8%,-4.4,2.9%,-24.1%,-5.5,-0.6%,-2.3
COC(=O)Cc1cc(=O)n2[nH]c(SC)nc2n1,5.3%,?,-0.5%,-4.7%,1.0,-8.1%,4.4
CSc1ccccc1OCc1cc(C(=O)N2CCc3sccc3C2)no1,14.2%,2.7,1.5%,0.7%,0.7,-7.4%,8.2
CCN(CC)CCOc1ccc(-c2c(C)c3c(ccc4ccccc43)oc2=O)cc1,nt,nt,-12.1%,-6.1%,1.2,nt,nt
Cc1ccc(S(=O)(=O)N(Cc2cc3ccc(C)cc3[nH]c2=O)c2ccccc2)cc1,11.7%,9.7,-7.2%,?,9.2,-11.7%,9.5
# Additional entries.
SMILES,Sfp PPTase inh,Menin MLL FP FL,ClpP mod,gsp ag,CtBP-E1A inh,gsp antagonist,TRPV1 PAM
CCC(C)(C)NC(=O)C(c1ccccc1Cl)N(Cc1cccnc1)C(=O)CCC(=O)Nc1cc(C)on1 (configuration not stated),3.8%,0.1,-1.9%,3.7%[15.4 µM],8.7,-9.5%,4.2
CCC1=NN(C(=O)C(=O)Nc2ccc(OC)cc2)C(O)(C(F)(F)F)C1 (configuration not stated),6.8%,4.4,-2.3%,-61.6%[inhibitor],-29.3,-3.1%,-15.9
CC(C)CC(=O)Nc1ccc(C(=O)CN2CCN(c3ccc(O)cc3)CC2)cc1,56.2µM*,1.5,nt,9.4%,-1.4,-0.3%,25.0
CC1CN(/C(=N\S(=O)(=O)c2ccccc2)c2ccccc2)CC(C)O1 (configuration not stated),7.9%,0.9,-2.1%,-2.0%,nt,3.5%,-3.8
COc1ccc(C2CC(=O)C=C(NC3CCCC3)C2)cc1 (configuration not stated),1.3%,2.9,0.5%,9.0%,-4.7,14.1%,-20.5
Cc1n[nH]c(=O)c2c(NC(=O)CSc3nn(-c4ccccc4)c(=S)s3)oc(C)c12,nt,nt,-0.2%,25.1%,3.7,-20.8%,-7.0
CC(=O)CCc1ccc(OCC(O)CNCCOc2ccc(C)cc2)cc1 (configuration not stated),4.5%,-4.8,nt,27.9%[15.4 µM],-7.7,2.2%,-2.0
CCOC(=O)C1=C(CC)Nc2ccccc2N=C1NC(=O)c1ccc(S(=O)(=O)N2CCOCC2)cc1,13.2%,3.3,nt,-6.4%[15.4 µM],0.0,-7.7%,-15.1
COc1ccccc1CNC(=O)C1CCCC1,12.2%,-2.5,nt,5.8%[15.4 µM],8.2,10.8%,22.4
CCOC(=O)N1CCC(NC(=O)c2ccc3c(=O)n4c(nc3c2)CCCC4)CC1,-5.1%,-0.4,-2.6%,4.9%,0.3,2.8%,1.7

# An unsorted share of the library. About 5.3% of those tested had a hit in this group.
